Screening results as filed in PubChem.
Calb FLC = C. albicans growth inhibition with fluconazole, primary screen, CaCi-2 strain, Alamar Blue fluorescence; C. albicans CaCi-2 (fluconazole-resistant clinical isolate) + fluconazole, 48 h; growth inhibition, % (no concentration beside the values); 0.57% of 300,000 active; AID 1979, 2009;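 active = most replicates above 75%; inconclusive = exactly half above 75%; inactive = most below 75%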;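 also: all wells also contain fluconazole at 8 µg/ml as a sub-toxic cotreatment; 0% = median of DMSO wells and 100% = median of geldanamycin control wells; wells of about 8 µL received 7.5 nL stock; the first replicate is given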
T cruzi inh = inhibitors of intracellular T. cruzi growth, primary screen, luminescence, NIH3T3 host cells. T. cruzi beta-gal in NIH3T3, 90 h. inhibition, % (test concentration not listed). 1.4% of 300,000 active. AID 1885, 2009;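 active = mean inhibition across valid replicates above about 55%, limit read from the data; inconclusive = mean below that limit but half or more replicates reach it; inactive = mean below it, under half of replicates reach it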;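 also: signal also drops with host cell toxicity which is not excluded here; 0% = plate median of DMSO wells and 100% = zero luminescence signal; higher percent means less beta-gal luminescence so fewer parasites; stock transfer was 50 nL into about 50 µL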
Beta2AR agonist = beta2AR agonists driving receptor internalization, primary screen, cell-based, FAP fluorogen, flow cytometry | Beta-2 adrenergic receptor (Homo sapiens), P07550 | Am2.2-beta2AR cells; reference of the scale not given here | response, % (no concentration beside the values) | 0.43% of 340,000 active | AID 504454, 2011;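 active = response above a set limit, near 3 SD of response in nonfluorescent compounds, cut at about 42% in these data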;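 also: stock transfer was 100 nL into about 11 µL; a reference agonist was the positive control; negative values mostly stem from fluorescent compounds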
Target sequence (P07550 whole entry, looked up): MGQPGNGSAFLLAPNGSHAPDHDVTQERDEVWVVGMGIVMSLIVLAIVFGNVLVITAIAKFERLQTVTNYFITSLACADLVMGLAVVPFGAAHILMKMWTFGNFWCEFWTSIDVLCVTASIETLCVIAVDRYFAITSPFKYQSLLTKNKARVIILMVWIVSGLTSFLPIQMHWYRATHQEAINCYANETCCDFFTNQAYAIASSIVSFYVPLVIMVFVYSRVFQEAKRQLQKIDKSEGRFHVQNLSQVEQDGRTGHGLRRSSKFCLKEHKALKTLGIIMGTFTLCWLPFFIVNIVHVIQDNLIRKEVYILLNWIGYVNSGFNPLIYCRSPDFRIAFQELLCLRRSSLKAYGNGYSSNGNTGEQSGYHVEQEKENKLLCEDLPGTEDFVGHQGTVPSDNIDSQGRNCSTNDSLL
UCH37 inh = inhibitors of human UCH37 deubiquitinase, primary screen, biochemical, Ub-AMC cleavage, fluorescence; Ubiquitin carboxyl-terminal hydrolase isozyme L5 (Homo sapiens), Q9Y5K5; inhibition, % (no concentration beside the values); 0.33% of 330,000 active; purified proteasome/UCH37;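 active = mean of two replicates above 20%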;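 also: 0% = compound-free wells with enzyme and 100% = wells lacking proteasome; stock transfer was 100 nL into about 20 µL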
Target sequence (Q9Y5K5 whole entry, looked up): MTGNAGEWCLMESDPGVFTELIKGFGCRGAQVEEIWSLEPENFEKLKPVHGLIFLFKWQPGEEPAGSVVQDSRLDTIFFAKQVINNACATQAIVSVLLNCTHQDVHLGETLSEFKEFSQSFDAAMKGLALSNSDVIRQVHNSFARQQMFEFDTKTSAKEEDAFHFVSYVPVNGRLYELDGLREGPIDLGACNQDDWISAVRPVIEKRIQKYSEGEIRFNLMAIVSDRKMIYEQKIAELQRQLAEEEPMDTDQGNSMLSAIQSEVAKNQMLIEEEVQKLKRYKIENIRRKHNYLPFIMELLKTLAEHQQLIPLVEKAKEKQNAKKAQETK
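Material: Human UCH37 enzyme supplied as purified proteasome complex | Schedule: 30 min compound-proteasome preincubation then 25 min substrate reaction, room temperature | Detection: AMC fluorescence from Ub-AMC cleavage, excitation 355 nm, emission 460 nm | Benchmarks: Wells without proteasome as full block, compound-free enzyme plus substrate as uninhibited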
Beta cell apopt = inhibitors of cytokine-induced beta cell apoptosis, primary screen, luminescence; protection from apoptosis, % (no concentration beside the values); INS-1E cytokine-induced death, ATP luminescence, 48 h; percent of positive-control rescue, neutral wells zero; 0.8% of 300,000 active;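 active = all replicates at 75% or more, or half of them and the mean; inconclusive = half reach 75% but not the mean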;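 also: 0% = cytokine-treated negative control wells and 100% = positive control rescue; higher means more ATP so stronger rescue from cytokine killing; wells of about 40 µL received 100 nL stock; the first replicate is given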
A1 inh = caspase 3/7 activation in MEF A1-2A-BIM cells, primary screen, A1 inhibitor project, cell-based, luminescence, HTS; Caspase-Glo 3/7 luminescence, 3 h; percent of clofoctol response, vehicle zero; caspase activation, % (no concentration beside the values); 0.066% of 330,000 active; AID 2462, 2010;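 active = over half of replicate activation scores above 10%, or exactly half above 10 with the replicate mean above 10; inconclusive = replicate mean below 10 yet half the replicates above 10; inactive = over half of replicates below 10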;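 also: wells of about 30 µL received 50 nL stock; many hits fall short of the cut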
LANA-H2A inh = blockers of LANA interaction with H2A/H2B – biochemical, FP readout, HTS, primary screen; Protein LANA1 (Human herpesvirus 8 type P (isolate GK18)), Q9QR71; cell-free LANA-H2A/H2B peptide, fluorescence polarization; AID 2629, 2010; 0.6% of 320,000 active; inhibition, % (concentration not given with the values); in the data active = inhibition mostly above about 10%, no sharp cut-off; inactive = mostly below about 6.7%;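 also: stock transfer was 7.5 nL into about 10 µL; 0% = median of vehicle wells and 100% = median of positive control wells; one replicate is shown; the record names a cut of 25% in any replicate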
RanGTP-Imp inh = inhibitors of RanGTP-importin-beta interaction, primary screen, biochemical, FRET, CFP-Ran, YFP-importin-beta, homogeneous. Ran GTPase (GTP-bound) - importin-beta complex. 1.1% of 300,000 active. inhibition, % (test concentration not listed). cell-free CFP-Ran/YFP-importin-beta FRET ratio;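 active = most replicates above 15%; inconclusive = exactly half above 15%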;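 also: 0% = DMSO wells and 100% = Ran loaded with GDP instead of GTP; wells of about 40 µL received 100 nL stock; the first replicate is given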
* = called active by the depositor; i = inactive; ? = inconclusive; . = no result given.

SMILES | Calb FLC | T cruzi inh | Beta2AR agonist | UCH37 inh | Beta cell apopt | A1 inh | LANA-H2A inh | RanGTP-Imp inh
O=C(O)C1CCN(C(=O)c2ccc(Cl)cc2)CC1 | 27 | 2 | 1 | -0.5 | -5 | 0.4 | 7.5 | ?
Cc1ccc(-c2nc(=S)c3c(n2CC2CCCO2)CC(C)(C)OC3)cc1 (stereo not given) | ? | -1 | -4 | 11 | . | . | . | 1.5
COc1ccc(-c2nc(C#N)c(N3CC(C)OC(C)C3)o2)cc1OC (stereo not given) | 5 | 6 | -4 | -64 | 0 | 0.4 | 4.3 | -1.8
CCn1c(SCC(=O)Nc2ccccc2)nc2nc3c(cc2c1=O)COC(C)(C)C3 | -7 | 13 | . | 2.3 | -1 | 0.0 | -1.0 | 5.3
CCCS(=O)(=O)N1CCN(Cc2ccccc2C(F)(F)F)CC1 | -7 | 14 | 7 | 2.3 | -11 | 0.3 | -1.4 | 0.7
Cc1ccc(NC(=O)CSc2nc(=O)n(CCCN3CCOCC3)c3c2CCCC3)c(C)c1 | 13 | 3 | 1 | 2.6 | . | 0.8 | 1.5 | ?
CCS(=O)(=O)Nc1ccc2[nH]c(=O)[nH]c2c1 | -10 | -14 | 2 | . | 1 | 0.9 | 1.8 | ?
CS(=O)(=O)N1CCC(Oc2cccc(C(=O)NCCCOc3cccnc3)c2)CC1 | 1 | 1 | -3 | 2.2 | 9 | -1.1 | -1.8 | -1.7
NC(=O)N/N=C/c1cn(-c2ccccc2)nc1-c1cccs1 | 31 | -1 | -16 | . | 19 | -4.5 | -1.7 | 2.6
Clc1ccc(SCNc2ccccc2Cl)cc1 | -1 | 39 | -6 | 7.2 | -10 | 0.5 | -1.7 | 1.7
O=C(Nc1ccc2oc(-c3ccccc3)nc2c1)c1cccs1 | -2 | -3 | -6 | -26 | 8 | -0.5 | 1.1 | 3.4
CCOc1ccccc1N1CC(C(=O)NNC(=O)c2ccc(F)cc2)CC1=O (stereo not given) | 28 | -12 | -7 | 0.3 | -4 | 1.4 | -5.8 | 1.8
COC(=O)C(Cc1ccc(OC(=O)c2ccc(Cl)cc2)cc1)N1Cc2ccccc2C1=O (stereo not given) | 6 | -5 | 7 | -1.2 | -13 | -4.4 | -0.6 | 3.9
O=Cc1c(F)cccc1N1CCCC1 | -14 | -7 | 1 | 7.1 | . | 0.8 | 0.1 | -0.3
COc1ccc(S(=O)(=O)N2CCOC2CNC(=O)C(=O)NCCc2c[nH]c3ccccc23)cc1 (stereo not given) | -11 | -14 | -3 | 3.3 | -11 | -0.2 | 2.7 | 5.1
CCOC(=O)N1CCN(S(=O)(=O)Cc2ccccc2)CC1 | -13 | -4 | -1 | 4.4 | -3 | -0.3 | -2.4 | -2.0
COc1ccc(-c2nnc(SCC(=O)Nc3nncs3)o2)cc1 | 2 | 1 | 4 | 2.3 | -3 | -0.4 | -3.1 | 1.4
Cc1ccc(CCN2CC(C(=O)NCc3ccc4c(c3)OCO4)CC2=O)cc1 (stereo not given) | -1 | 8 | 0 | -0.4 | -4 | -0.1 | 3.0 | -1.7
CC1CCN(S(=O)(=O)c2cccc(C(=O)Nc3nncs3)c2)CC1 | -4 | -8 | -1 | 0.2 | 0 | -1.4 | -3.3 | 5.2
CCOc1cc(/C=N/NC(=O)CN2CCOCC2)ccc1OCc1ccc(Cl)cc1 | 2 | -8 | -1 | . | 2 | 1.1 | 1.3 | 5.4
C=CCn1c(C)c(C(=O)OCC)c2cc(O)c3ccccc3c21 | 22 | 3 | -6 | 1.1 | -1 | 0.0 | 3.9 | 1.1
Cc1ccc(C2CC(c3ccccc3)=NN2c2ccccc2)o1 (stereo not given) | 0 | -19 | 0 | i | -2 | -0.5 | -1.4 | -6.2
Cc1ccc(NC(=O)CSc2nnc(CNC(=O)c3ccco3)o2)cc1 | 13 | -19 | -8 | 5.0 | -2 | 0.3 | 2.5 | -0.1
O=[N+]([O-])c1ccc(CSc2nnc(Cc3ccccc3)o2)cc1 | 6 | 21 | 0 | 1.6 | -4 | 0.1 | -7.0 | -2.2
O=C(C[n+]1ccn(-c2ccccc2)c1)c1ccc([N+](=O)[O-])cc1 | -1 | -1 | -7 | 3.7 | 38 | 0.1 | -1.7 | -0.7
CC1CC(C)CN(S(=O)(=O)c2ccc(NC(=S)NC(=O)c3ccccc3)cc2)C1 (stereo not given) | 17 | 1 | 5 | 3.2 | 1 | -0.7 | -4.3 | 3.6
O=C(c1ccccc1)c1coc2ccc(O)c(CN3CCOCC3)c12 | 3 | 3 | 5 | 1.9 | -3 | -0.7 | -2.3 | -0.9
COc1ccc(CNC(=O)C2CCN(S(=O)(=O)c3c(C)n[nH]c3C)CC2)cc1 | -6 | 0 | -6 | 0.9 | 2 | 0.1 | 3.6 | 2.0
COCCNC(=O)/C(C#N)=C/c1c(N2CCCCCC2)nc2c(C)cccn2c1=O | -2 | -6 | -9 | -3.9 | 3 | 0.1 | 1.0 | 1.8
CCC(=O)NC(NC(=S)Nc1ccccc1Br)C(Cl)(Cl)Cl (stereo not given) | 3 | -10 | 1 | 1.2 | -1 | 2.9 | 0.6 | 3.0
COC(=O)c1[nH]c2ccc(Cl)cc2c1NC(=O)CN1CCC(C(N)=O)CC1 | -8 | 9 | . | -4.6 | -2 | -0.5 | 1.0 | -1.4
COCCn1c(-c2ccc(OC)cc2)c(-c2ccc(OC)cc2)oc1=O | -19 | 21 | -10 | 2.3 | -16 | -1.5 | 7.2 | 0.0
CC(C)CC(=O)NC(NCC1CCCO1)C(Cl)(Cl)Cl (stereo not given) | 1 | -10 | 1 | 0.9 | -9 | 0.9 | -0.7 | -2.2
CCN(CC)c1ccc(NC(=O)c2ccccc2Br)cc1S(=O)(=O)Nc1ccccc1OC | -20 | 39 | 5 | 7.6 | 33 | 1.8 | . | -0.4
COCCN1C(=O)C(CC(=O)Nc2ccccc2)SC1=Nc1ccc(OC)cc1 (stereo not given) | -49 | -10 | 5 | 0.4 | -6 | 0.2 | -0.6 | -2.9
O=C(NCc1ccccc1CN1CCOCC1)c1ccc(-n2cccn2)cc1 | . | . | -23 | 0.8 | 4 | 1.2 | -2.5 | .
CCC(C)(C)NC(=O)C(c1cccn1C)N(Cc1ccc(OC)cc1)C(=O)Cn1nnc2ccccc21 (stereo not given) | -15 | 0 | -3 | 4.8 | 18 | 0.9 | 4.1 | 1.3
CC1CCc2c(sc(NC(=O)CSc3ncnc4c3cnn4-c3ccccc3Cl)c2C#N)C1 (stereo not given) | 1 | -21 | -4 | 1.6 | -5 | -0.3 | -2.5 | -2.4
Cc1cc2c(cc1C)CSC(c1ccccc1OC(=O)C(C)C)SC2 | 2 | -6 | 10 | 5.1 | 0 | 0.3 | 1.8 | -0.9
NC(=O)c1ccc(C2SCC(=O)N2Cc2ccccc2)cc1 (stereo not given) | -12 | -11 | 10 | 0.9 | -4 | 0.0 | 0.0 | -0.3
COc1ccc(C(=O)Nc2nc(-c3cccs3)cs2)cc1 | -17 | 23 | -1 | . | -5 | 0.7 | 0.6 | 5.3
C/C(CC(=O)Nc1ccc(Cl)cn1)=N\NC(=O)Cc1cccs1 | -4 | -8 | 3 | . | 3 | -0.7 | -6.1 | 1.4
C/C(=N\Nc1ccc(C(F)(F)F)cn1)c1ccc(S(=O)(=O)NCc2ccco2)cc1 | -6 | 33 | 6 | . | 7 | 0.8 | 4.1 | 4.3
O=C(N/N=C/C1CCCCC1)c1cc(Cl)ccc1O | 43 | -11 | 7 | . | -7 | -0.6 | -6.6 | -1.3
c1ccc2[nH]c(CCCCc3nc4ccccc4[nH]3)nc2c1 | 1 | -5 | -12 | 0.7 | -13 | -0.2 | -2.8 | 0.9
CCCCN(CC(=O)NCc1ccc(Cl)cc1)S(=O)(=O)c1ccc2c(c1)OCCO2 | -7 | 10 | -13 | 3.0 | -4 | 0.2 | -4.7 | -9.5
COc1ccc(CC2(CO)CCN(CC3=CC[C@H]4C[C@@H]3C4(C)C)CC2)cc1 | 38 | 39 | -3 | 1.6 | . | . | . | -3.2
Cc1cc2oc(=O)sc2cc1NS(=O)(=O)c1cccc2cccnc12 | 8 | 10 | -9 | 4.4 | 3 | -0.3 | 2.9 | -3.1
CCSc1nnc(NC(=O)c2csc(C)c2)s1 | 4 | -5 | -3 | -2.8 | 2 | 0.3 | 2.8 | -3.2
C[C@H]1CN([C@@H](C)CO)C(=O)c2cccc(NC(=O)C3CC3)c2O[C@H]1CN(C)S(=O)(=O)c1cccs1 | . | . | -4 | 6.1 | -6 | 0.1 | 0.5 | .
Cc1ccc(C)c(N(C(=O)CCC(=O)Nc2cc(C)on2)C(C(=O)NC2CCCC2)c2ccco2)c1 (stereo not given) | -10 | 2 | 27 | 4.5 | 1 | 3.2 | -3.5 | -3.3
CCC(C(=O)Nc1cccc(C(=O)O)c1)c1ccccc1 (stereo not given) | -6 | -13 | -3 | 1.6 | -10 | 0.2 | 4.2 | -2.8
Cc1ccc2nc(N3C(=O)C(O)=C(C(=O)c4ccco4)C3c3cccc(O)c3)sc2c1 (stereo not given) | 34 | -1 | 0 | . | 3 | -0.6 | -2.6 | 2.3
O=S(=O)(Nc1ccc2c(c1)nc1n2CCN(Cc2ccccc2)C1)c1ccc(F)cc1 | -21 | 18 | 11 | -4.1 | -1 | 0.6 | 0.0 | 7.2
C=C(C)/C=N/NC(=S)Nc1ccc(S(=O)(=O)N2CCOCC2)cc1 | 2 | -20 | 2 | . | 3 | 0.6 | -2.1 | 0.8
Cc1ccc2cccc(S(=O)(=O)N3CCCc4ccccc43)c2n1 | 5 | 14 | 0 | 3.1 | 10 | -0.3 | 1.1 | -1.5
CC(C)CCNC(=O)C(c1ccc(O)cc1)N(C(=O)C1COc2ccccc2O1)c1cccc(O)c1 (stereo not given) | 22 | 10 | -4 | 5.9 | 12 | -0.2 | -3.4 | 5.5
Cc1noc(C)c1C(=O)OCC(=O)N1CCN(S(=O)(=O)c2ccc3ccccc3c2)CC1 | 22 | 1 | -9 | 0.0 | 1 | -0.3 | -1.2 | 6.3
CCC1CCC2(CC1)NC(=O)N(CC(=O)NCc1ccc(Cl)cc1)C2=O (stereo not given) | . | . | 0 | 5.6 | -2 | 0.0 | -4.5 | .
COc1ccc(CCC(=O)OCC(=O)N2CCN(S(=O)(=O)c3ccc(C)cc3C)CC2)cc1 | . | . | -7 | 6.0 | -10 | -1.2 | . | .
